Screens (PubChem BioAssay)
GIV Gai3 FP – blocks GIV peptide binding to rat Galpha-i3. P08753. Galpha-i3/FITC-GIV peptide fluorescence polarization, 90 min; hits give low values; scaled: aluminum fluoride 0%, vehicle 100%. percent of control (FP), % (no concentration beside the values). 210,000 compounds, 0.42% hits. AID 1224905;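 active means replicate mean at 85% of control or lower, very high polarization wells dropped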;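 further: wells of about 15 µL received 100 nL stock; the first replicate is given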
Target sequence (P08753 whole entry, looked up): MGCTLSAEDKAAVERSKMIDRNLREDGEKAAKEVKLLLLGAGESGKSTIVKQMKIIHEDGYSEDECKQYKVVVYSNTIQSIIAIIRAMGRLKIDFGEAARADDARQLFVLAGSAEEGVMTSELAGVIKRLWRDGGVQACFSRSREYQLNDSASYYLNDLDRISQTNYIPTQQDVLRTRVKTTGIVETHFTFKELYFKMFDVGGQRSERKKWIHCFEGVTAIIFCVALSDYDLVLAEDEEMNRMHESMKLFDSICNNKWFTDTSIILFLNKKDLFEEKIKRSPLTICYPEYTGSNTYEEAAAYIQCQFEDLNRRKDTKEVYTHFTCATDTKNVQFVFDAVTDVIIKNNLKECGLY
* marks the source's active call; other numbers are inactive results. These rows are one share of the data. The share of hits here may be higher or lower than overall.

SMILES,GIV Gai3 FP
O=C(/C=C/c1ccccc1)Nc1cc(C(=O)Nc2ccc3c(c2)OCCO3)ccc1N1CC2CC(C1)c1cccc(=O)n1C2 (stereo not given),104.9
COc1ccc(N2C(=O)/C(=C\c3ccc(Cl)cc3)S(=O)(=O)C2c2ccc(Cl)cc2)cc1 (stereo not given),114.4
Cc1ccn2c(=O)c(NC(=O)c3ccc(C(C)(C)C)cc3)c(C)nc2c1,98.6
Cc1ccc(-n2nc3c(c2NC(=O)c2ccc(C(=O)c4ccccc4)cc2)CS(=O)(=O)C3)c(C)c1,108.4
O=S1(=O)N=CN(c2ccc(Cl)cc2)c2ncccc21,104.2
COC(=O)CN1C(=O)NC2NC(=O)NC21 (stereo not given),105.1
CCCc1c(C)c2c(C)[nH]nc2oc1=O,110.2
CC(=O)c1ccc(N2CCN(C(=O)c3ccc4c(=O)n(Cc5ccc(Cl)cc5)c(=S)[nH]c4c3)CC2)cc1,109.7
Cc1cccc(-c2nnc(-c3nc(NC4CC4)c4ccccc4n3)o2)c1,101.8
O=C(O)c1c[nH]c2ccc(S(=O)(=O)N3CCN(c4ccc(F)cc4)CC3)cc2c1=O,104.2
CCCCn1c(=O)[nH]c2c(C(=O)N3CCCC(C)C3)snc2c1=O (stereo not given),101.0
COc1ccc(NC(=O)N2CCCN(c3nc4cc(Br)ccc4n4cccc34)CC2)cc1OC,95.8
O=C(NCc1ccc(F)cc1)c1ccc2c(c1)ncn2-c1ccc(F)cc1F,104.5
O=P(c1ccccc1)(c1ccccc1)c1nc(-c2ccccc2Cl)oc1N1CCOCC1,113.5
CC(C)(C)C1CCC2(CC1)NCCN=C2NCc1cccc(F)c1 (stereo not given),102.2
O=C(c1ccc([N+](=O)[O-])cc1)N1N=C(C(F)(F)F)CC1(O)c1ccncc1 (stereo not given),114.4
COc1ccc(CSc2nccc3c2ccn3CC(=O)NCCC2=CCCCC2)cc1,104.0
O=c1ccc(-c2ccc(F)cc2)nn1CCc1nc(-c2ccc3c(c2)OCO3)no1,106.1
Cc1ccn2c(NC(=O)/C=C/c3ccccc3)c(-c3ccccc3)nc2c1,106.9
COc1cc(NC(=O)C2CCN(c3nccc4sc(C)cc34)CC2)cc(OC)c1,102.5
O=C(Cn1nc(C(=O)N2CCCC2)c2ccccc21)N1CCN(C2CCCCC2)CC1,97.9
COc1ccccc1N1CCN(c2nc(C)nc3sc4c(c23)CCC4)CC1,108.6
COc1ccc(-c2nc(-c3cc(OC)c(OC)c(OC)c3)[nH]c2-c2ccc(OC)cc2)cc1,107.1
CCn1cccc1-c1nc(C)c(C(=O)N2CCN(c3cccc(C)c3)C(C)C2)s1 (stereo not given),110.5
Cc1cc(C)cc(-n2ncc3c(N4CC(C)OC(C)C4)ncnc32)c1 (stereo not given),94.8
Cn1c(=O)n(CCC(=O)N2CCCC2)c(=O)c2cc(S(=O)(=O)N3CCc4ccccc43)ccc21,105.1
Cc1cc(-c2c(C)sc(C)c2S(=O)(=O)N2CCN(c3ccc(Cl)cc3)CC2)n[nH]1,98.1
COc1cc(Cl)c(NC(=O)c2cccn3c(-c4ccccc4F)nnc23)c(OC)c1,103.0
CC(NC(=O)c1ccc2c(c1)OCCO2)c1ccc2c(c1)OCCCO2 (stereo not given),107.2
CC(C)c1ccc(-c2nn3c(=O)c(NC(=O)c4ccccc4)cnc3o2)cc1,105.5
CC(C)(C)NC(=O)c1cccc(Oc2cc(-c3ccc(F)cc3)ncn2)c1,101.3
Cc1ccc(-c2noc(CSc3nc4cc5c(cc4c(=O)n3Cc3ccccc3)OCO5)n2)cc1,106.3
CCc1cc(C2CCCN2S(=O)(=O)c2ccc(C3CCCCC3)cc2)on1 (stereo not given),100.0
COc1ccc(-c2cc(C(F)(F)F)n3nc(C(=O)Nc4cccnc4Cl)cc3n2)cc1,108.8
Cc1ccc(N(C)S(=O)(=O)c2ccc3[nH]cc(C(=O)N4CCc5ccccc5C4)c(=O)c3c2)cc1C,116.3
COc1cccc(N2CCN(c3ncnc4c3cnn4-c3ccc(Cl)cc3)CC2)c1,111.0
CCCCCN1/C(=C\C=C\c2n(CCCC)c3cc(Cl)c(Cl)cc3[n+]2CCCCC)N(CCCC)c2cc(Cl)c(Cl)cc21,-62.4*
Cc1ccc2oc(-c3noc(-c4ccc(Br)cc4)n3)c(C)c2c1,98.5
COc1ccccc1N1CCN(S(=O)(=O)c2cc(-c3cc(C(F)(F)F)on3)cs2)CC1,96.4
CC1(C)c2ccccc2N2CC(=O)NC21/C=C/c1ccccc1 (stereo not given),108.2
Cc1cc(S(=O)(=O)Nc2cc(C(=O)NCCC3=CCCCC3)ccc2N2CC3CC(C2)c2cccc(=O)n2C3)ccc1F (stereo not given),108.0
CCOc1ccc(C(=O)N2CCCC(C)(C(=O)NCc3cccc(OC)c3)C2)cc1 (stereo not given),106.3
c1ccc(-c2nnc(-c3cccnc3N3CCN(c4ccccn4)CC3)o2)cc1,102.9
CCOC(=O)N1CCN(C(=O)c2ccc3c(=O)n(Cc4ccccc4)c(SCc4cccc([N+](=O)[O-])c4)nc3c2)CC1,107.4
Cc1nn(-c2nc3ccccc3[nH]2)c2c1C(c1cc(Br)ccc1F)CC(=O)N2 (stereo not given),100.3
CN(C)c1ccc(C(=O)/C=C/c2ccc3oc4ccccc4c3c2)cc1,114.5
CCc1ccc(-c2cc(C(=O)N3CCCCC3)c3ccccc3n2)cc1,103.1
O=C(Nc1ccc(F)cc1)NC1CCN(c2ccc(F)cc2)C1=O (stereo not given),98.9
COc1ccc(Cn2ccc3c(SCC(=O)Nc4cc(OC)ccc4OC)nccc32)cc1,109.4
O=C(c1ccccc1)c1ccc(-c2nc3cc(Cc4ccc5nc(-c6ccccc6)c(-c6ccc(C(=O)c7ccccc7)cc6)nc5c4)ccc3nc2-c2ccccc2)cc1,108.1
COc1ccc(C(=O)Oc2cccc(NC3=NS(=O)(=O)c4ccccc43)c2)cc1OC,98.4
O=C(CSc1nc2c(c(=O)n1-c1ccc(F)cc1)SCC2)N1CCCc2ccccc21,105.9
COc1ccccc1N1CCN(S(=O)(=O)c2ccc(F)c(C(=O)Nc3ccccc3Br)c2)CC1,112.2
CC(C)(C)c1ccc(C(=O)N/C(=C\c2ccc([N+](=O)[O-])cc2)C(=O)Nc2cc(Cl)ccc2Cl)cc1,110.0
Cc1ccc(Nc2nc(-c3cc(C)ccc3C)cs2)nc1,98.6
CC(C)CNC(=O)c1csc2c1CCCC2,101.4
COc1ccc([C@H]2C(C#N)=C(N)OC3=C2C(=O)CC(C)(C)C3)c([N+](=O)[O-])c1OC,122.6
CN(C)C(=S)N/N=C1\C(=O)C(c2ccccc2)(c2ccccc2)c2ccccc21,112.4
COc1ccc(OC)c(S(=O)(=O)N2CCCC2c2cc(C(C)C)no2)c1 (stereo not given),103.7
O=C(NCCc1cscn1)[C@H]1CSCN1C(=O)c1cccs1,98.1

More records follow.
SMILES,GIV Gai3 FP
Cc1c(C(=O)Nc2ccc(Oc3ccccc3)cc2)sc2ncn(CC(=O)N3CC(C)CC(C)C3)c(=O)c12 (stereo not given),105.8
Cc1ccc(Nc2cc(C)nc(NCc3ccccc3)n2)cc1,98.4
CC1(C)OCC([C@H]2O[C@@H]3OC(C)(C)OC3C2OC(=O)Nc2ccc(Cc3ccc(NC(=O)OC4C5OC(C)(C)O[C@H]5O[C@@H]4C4COC(C)(C)O4)cc3)cc2)O1 (stereo not given in full),107.3
CCOC(=O)c1c(NC(=O)C(C)Sc2nnc(CNC(=O)c3cccs3)n2C)sc2c1CCCCC2 (stereo not given),105.1
CCc1cc(C2CCCN2S(=O)(=O)Cc2ccccc2)on1 (stereo not given),104.3
Cc1ccc(C)c(NC(=O)Nc2ccc(CCc3nc4ccccc4[nH]3)cc2)c1,103.3
CCCCC(=O)N1c2ccc(OC)cc2C(=C2SC(C(=O)OCC)=C(C(=O)OCC)S2)C(=S)C1(C)C,109.8
COc1ccc2c(c1)N(C)/C(=c1/s/c(=C3/C(=O)N(C)C(=S)N3c3ccccc3)n(C3CCCCC3)c1=O)S2,105.7
CCCCc1ccc(NC(=O)Cn2nc3cc(C)nc(-c4ccc(OC)cc4)n3c2=O)cc1,104.7
COc1ccc(C(CC(=O)O)NS(=O)(=O)c2cccc3nsnc23)cc1 (stereo not given),105.8
CCOC(=O)c1c(CSc2cccs2)n(C)c2cc(Br)c(O)cc12,104.9
CCOC(=O)N1CCC(NC(=O)CSc2nc3ccccc3n2S(=O)(=O)c2cccc([N+](=O)[O-])c2)CC1,101.4
CCC(Sc1nc(NCC2CCCO2)c2ccccc2n1)C(=O)Nc1ccc2c(c1)OCO2 (stereo not given),105.0
Cc1ccc(-c2noc3ncnc(N4CCC(C(=O)N(C)c5cc(C)ccc5C)CC4)c23)cc1,98.2
CC1(C)CC(=O)C2=C(C1)NC1=C(C(=O)c3ccccc31)C2c1cc([N+](=O)[O-])ccc1O (stereo not given),114.1
Cc1ccc(S(=O)(=O)Oc2ccc3c(c2)OC(c2ccccc2)CC32CC(C)(C)NC(=S)N2)cc1 (stereo not given),117.2
Cc1ccc(S(=O)(=O)N2CCCC(c3nc(-c4ccc(NS(C)(=O)=O)cc4)no3)C2)cc1 (stereo not given),100.6
Cn1c(CN2CCN(C(=O)c3ccc(Cl)cc3)CC2)nc2cc(C(=O)N3CCCC3)ccc21,104.0
COc1cccc(C2C3=C(CC(c4ccccc4)CC3=O)Nc3ccccc3N2C(=O)CCC(=O)O)c1 (stereo not given),103.0
O=C(Cn1ncc2c(N3CCCCC3)ncnc21)NCCN1CCCCC1,104.9
Cc1nc(N(C)c2ccc(C(C)C)cc2)c2c(C)c(C(=O)N3CCC4(CC3)OCCO4)sc2n1,109.0
CC(C)CCOCC1OC2OC(C)(C)OC2C2OC(C)(C)OC12 (stereo not given),103.8
Cc1ccccc1CN1C=NS(=O)(=O)c2ccccc21,107.0
CCN(CC)c1ccc2cc(-c3nc(-c4ccc(C)c(C)c4)cs3)c(=O)oc2c1,220.3
COc1cc(C2N3CC4(C)CN2CC(C)(C3)C4O)ccc1O (stereo not given),113.3
CCOc1ccc(CNC(=O)C2CCN(Cc3cc4ccccc4n3Cc3ccccc3)CC2)cc1,102.6
Cc1nc(-c2ccc(C)c(-n3cc(C(=O)Nc4cccc(Cl)c4)c(C)n3)c2)no1,99.8
CCOC(=O)c1ccc(N2N=C(C)/C(=C\c3ccc(-c4ccc(Cl)c(C(=O)O)c4)o3)C2=O)cc1,98.1
CC(C)c1cc(C2CCCN2S(=O)(=O)c2ccc(C3CCCCC3)cc2)on1 (stereo not given),102.6
O=C(CN1C2=NCCN2c2ccccc21)c1ccc(Cl)cc1,109.1

Part of the list above, as labelled records:
CCOC(=O)c1c(NC(=O)C(C)Sc2nnc(CNC(=O)c3cccs3)n2C)sc2c1CCCCC2 (stereo not given)
- GIV Gai3 FP: 105.1
CCc1cc(C2CCCN2S(=O)(=O)Cc2ccccc2)on1 (stereo not given)
- GIV Gai3 FP: 104.3
Cc1ccc(C)c(NC(=O)Nc2ccc(CCc3nc4ccccc4[nH]3)cc2)c1
- GIV Gai3 FP: 103.3
CCCCC(=O)N1c2ccc(OC)cc2C(=C2SC(C(=O)OCC)=C(C(=O)OCC)S2)C(=S)C1(C)C
- GIV Gai3 FP: 109.8

(continued)
SMILES,GIV Gai3 FP
O=C(NCCc1c[nH]c2ccccc12)c1cccc(-n2c(=S)[nH]c3ccccc3c2=O)c1,109.2
COc1cccc2cc(-c3nc(-c4ccc(Cl)cc4Cl)cs3)c(=O)oc12,117.2
COc1ccc(-c2csc3ncnc(N4CCN(c5ccccc5OC)CC4)c23)cc1,97.7
O=c1cc(CSc2nc(NC3CCCCC3)c3ccccc3n2)nc2ccc(Cl)cn12,109.0
CCOCCOC(=O)C1=C(C)NC2=C(C(=O)CC(c3cccs3)C2)C1c1coc2ccccc2c1=O (stereo not given),102.9
COc1cc(/C=C2\N=C(c3cncc(Br)c3)OC2=O)cc(OC)c1OC,103.6
CC(=O)Nc1ccc(Nc2ncnc3c2cnn3-c2ccc(Cl)cc2)cc1,106.7
O=C(Cn1cc(-c2nnc(CN3CCCCC3)o2)c2ccccc21)Nc1ccc(F)cc1,102.6
Cc1[nH]c(C)c(S(=O)(=O)N2CCOCC2)c1-c1nnc(C2CCC2)o1,105.7
CCN1CCCC1CNC(=O)c1sc2ncn(CC(=O)Nc3cccc(C(F)(F)F)c3)c(=O)c2c1C (stereo not given),101.8
C=CCOC(=O)C1=C(C)NC(SCC(=O)Nc2cccc(C)c2C)=C(C#N)C1c1ccco1 (stereo not given),101.5
CCOC(=O)c1ccccc1NC(=O)CSc1nccn1-c1cc(C)ccc1C,104.5
COc1cccc(NC(=O)C2CCN(Cc3noc(-c4ccc(F)cc4)n3)CC2)c1,105.6
Cc1ccc(Cc2nnc(-c3cccc(N)c3)o2)cc1,98.7
CNS(=O)(=O)c1ccc2nc(NS(=O)(=O)c3ccc(Br)cc3)sc2c1,105.9
O=C1C2C3c4ccccc4C(C=Nc4cccc5ccccc45)(c4ccccc43)C2C(=O)N1c1ccccc1 (stereo not given),110.0
OC(CN1CCN(Cc2ccccc2)CC1)Cn1c2ccccc2c2ccccc21 (stereo not given),104.4
O=C(C1CCN(S(=O)(=O)c2ccc(-c3noc(C4CC4)n3)cc2)CC1)N1CCc2ccccc21,103.4
COc1ccc(Br)cc1C1CC(=O)Nc2c1c(C)nn2-c1ccc2nnc(C)n2n1 (stereo not given),97.1
c1coc(CNc2nc(Nc3ccc4c(c3)OCO4)nc(N3CCOCC3)n2)c1,100.7
O=C(Nc1ccc(Br)cc1)/C(=C/c1cccc([N+](=O)[O-])c1)NC(=O)c1ccccc1Br,112.6
